# VDR inh – Inhibitors of the vitamin D receptor (VDR): qHTS; Vitamin D3 receptor (Homo sapiens), P11473; VDR-SRC2-3 peptide fluorescence polarization, 2 h; Potency, µM, for inactives: max response, negative = inhibition, most hits filed as inhibitors; hit rate 0.93% among 400,000; active = well fitted inhibition curve with a large enough effect; inconclusive = small, poorly fitted or top-dose-only effect, or another doubt; inactive = no such curve, though single readings can be large or run the other way; also: series mostly up to about 120 µM
# Target sequence (P11473 whole entry, looked up): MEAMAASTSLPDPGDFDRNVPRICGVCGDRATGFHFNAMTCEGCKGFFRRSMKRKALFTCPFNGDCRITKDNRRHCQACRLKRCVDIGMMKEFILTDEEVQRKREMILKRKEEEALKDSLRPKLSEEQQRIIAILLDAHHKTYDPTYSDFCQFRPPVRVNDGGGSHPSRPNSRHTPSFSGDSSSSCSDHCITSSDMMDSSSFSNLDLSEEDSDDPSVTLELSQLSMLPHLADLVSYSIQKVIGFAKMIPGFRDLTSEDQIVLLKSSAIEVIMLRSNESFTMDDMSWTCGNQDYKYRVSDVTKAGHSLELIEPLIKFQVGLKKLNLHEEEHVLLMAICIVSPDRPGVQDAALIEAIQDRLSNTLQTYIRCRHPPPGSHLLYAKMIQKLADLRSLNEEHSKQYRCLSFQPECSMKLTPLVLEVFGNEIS
#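 Fluorescence polarization assay of small-molecule disruption of VDR binding to coregulator peptide SRC2-3. Compounds and controls pin-transferred, then read after 2 h incubation at ambient room temperature.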
# Numbers without * were called inactive; ? = inconclusive; & = joins results of further samples; [ ] = another dose, or the depositor's remark. % is scaled to controls: 0 for no effect and ±100 for the full control effect; potency is read from the fitted curve at half-maximal effect. The list is partial (hit frequency here may not be typical).
# Start of the listing, in advance:
SMILES,VDR inh
COc1cccc(C2c3c(oc4cc(C)cc(C)c4c3=O)C(=O)N2CCc2ccc(OC)c(OC)c2)c1 (centres undefined),8%
COC(=O)CCC(=O)Nc1c(C)n(C)n(-c2ccccc2)c1=O,-18%
COc1ccc(C(O)(C2CCCCC2)C(CN2CCCC2)c2ccccc2)cc1 (centres undefined),4%
Cc1ccc(NC2=NCC(=O)N2c2ccc3c(c2)OCCO3)c(C)c1,-12%
Cc1ccc(C(=O)Nc2ccccc2C(=O)N2CCN(c3ccccc3)CC2)cc1,-13%
Cc1sc2c(c1C)c(=O)n(-c1ccccc1)c(=O)n2CC(=O)c1ccc(Cl)cc1,1%

# Results, repeating the preview:
SMILES,VDR inh
COc1cccc(C2c3c(oc4cc(C)cc(C)c4c3=O)C(=O)N2CCc2ccc(OC)c(OC)c2)c1 (centres undefined),8%
COC(=O)CCC(=O)Nc1c(C)n(C)n(-c2ccccc2)c1=O,-18%
COc1ccc(C(O)(C2CCCCC2)C(CN2CCCC2)c2ccccc2)cc1 (centres undefined),4%
Cc1ccc(NC2=NCC(=O)N2c2ccc3c(c2)OCCO3)c(C)c1,-12%
Cc1ccc(C(=O)Nc2ccccc2C(=O)N2CCN(c3ccccc3)CC2)cc1,-13%
Cc1sc2c(c1C)c(=O)n(-c1ccccc1)c(=O)n2CC(=O)c1ccc(Cl)cc1,1%
CN(C)CCNC(=O)C(=O)NCC1OCCCN1S(=O)(=O)c1cccs1 (centres undefined),-7%
O=C(Nc1ccc(Cl)cc1Cl)c1cc2ccccc2o1,-7%
N#C/C(=C\c1cccnc1)c1ccccn1,13%
Cc1ccc(NC(=O)N2CCc3ccccc32)cc1,14%
Cc1ccc2c(c1)C(c1ccccc1)N(C(=O)C(C)C)CC(=O)N2 (centres undefined),8%
CCC(=O)Nc1ccc(NC(=O)c2ccccc2Cl)nc1,-3%
CCOC(=O)C(C)n1cnc2c(nnn2-c2ccc(OC)cc2)c1=O (centres undefined),-19%
CC(=O)Nc1ccc(NC(=O)C2CC(=O)N(c3ccccc3Cl)C2)cc1 (centres undefined),-12%
CC(=O)/C(=N\Nc1ccccc1)Oc1ccc([N+](=O)[O-])cc1,-5%
O=C(NNC(=O)c1ccccc1[N+](=O)[O-])c1ccc(NS(=O)(=O)c2cccs2)cc1,4%
CC1CCCCN1C(=O)CSc1nc(C2CC2)nc2c1cnn2-c1ccccc1 (centres undefined),-10%
CC(=O)Nc1ccc(S(=O)(=O)N(C)CC(=O)OCC(=O)Nc2cccnc2Cl)cc1,3%
N#Cc1cc([N+](=O)[O-])ccc1Oc1ccc(-c2nnco2)cc1,3%
NC(=O)c1c(-c2cccs2)csc1N,?
O=C(COc1ccccc1)Nc1cccc(-c2nn[nH]n2)c1,11%
O=[N+]([O-])c1cc(-c2ccccc2)cc([N+](=O)[O-])c1O,-15%
Nc1ccc2nc(-c3ccccc3)[nH]c2c1,-13%
COc1cccc2c1C(=O)CC2NC(=O)C(F)(F)F (centres undefined),-5%
Cc1ccc(-c2nc(CS(=O)(=O)CC(=O)NC3CCC(C)CC3)c(C)o2)cc1 (centres undefined),-4%
Cc1ccc(NC(=O)CN(C)C(=O)Nc2ccc(C)cc2)cc1,7%
COc1cccc(N2CCN(C(=O)c3cc4c(OC)c(OC)c(OC)cc4[nH]3)CC2)c1,-24%
Cc1ccc(CNC(=O)c2ccc(S(=O)(=O)Nc3c(C)n(C)n(-c4ccccc4)c3=O)cc2)cc1,4%
CC(=O)Nc1ccc(SCC(=O)Nc2sccc2C#N)cc1,-3%
COCCCn1c(-c2ccc(OC)cc2)nc2c1c(=O)[nH]c(=O)n2Cc1ccccc1,2%
Cc1cc2ncn(S(=O)(=O)c3ccc(F)cc3)c2cc1C,-13%
CCn1c(C)[n+](CC)c2ccc(S(=O)(=O)N(C)C)cc21,20%
CCOC(=O)N1CCN(S(=O)(=O)N2CCCC(C(=O)NCCc3ccc(C)cc3)C2)CC1 (centres undefined),-4%
CCOC(=O)c1c(/N=C/N(C)C)sc(/C=N/Nc2ccccc2)c1-c1ccc(Cl)cc1,?
C=CCN(Cc1ccc(Cl)s1)C(=O)c1ccc(F)c(S(=O)(=O)N2CCOCC2)c1,5%
COc1ccc(-c2csc(NC(=O)c3ccccc3OC)c2C(=O)O)cc1OC,-10%
O=c1[nH]c(C2CCCN(S(=O)(=O)c3ccccc3)C2)nc2c1nnn2Cc1ccc2c(c1)OCCO2 (centres undefined),-5%
O=C(c1ccc(Cl)c(S(=O)(=O)N2CCOCC2)c1)N1CCc2ccccc2C1,-4%
COc1ccc(/C=N/NC(N)=S)cc1,15%
CCN(CC)CCN(C(=O)c1ccccc1OC)c1nc2ccc(F)cc2s1,-4%
O=C(COC(=O)Cc1cccc(F)c1)NC(=O)NC1CCCCC1,-14%
COc1ccc(S(=O)(=O)N2CCN(CC(=O)Nc3ccc(Cl)c(C(F)(F)F)c3)CC2)cc1,10%
O=C(CCc1ccccc1)NNC(=S)NC(=O)c1ccccc1,-14%
Cn1c(N)c(C(=O)COC(=O)c2cc(C(F)(F)F)nc3ccccc23)c(=O)n(Cc2ccccc2)c1=O,-17%
O=C1c2ccccc2C(=O)N1CCCCCCc1ccccc1,-9%
COc1cc([N+](=O)[O-])ccc1NC(=S)NC(=O)CC(C)(C)C,-2%
CN(C)S(=O)(=O)c1cccc(NC(=O)COC(=O)c2cc(=O)[nH]c(=O)[nH]2)c1,0%
CCOc1ccc(C(=O)CCC(=O)NCC(=O)OCc2ccccc2)cc1OCC,3%
O=C(CSc1nc2ccccc2s1)N/N=C/c1cc([N+](=O)[O-])ccc1O,-9%
O=C(CN1CCOCC1)Nc1ccc(Oc2ccccc2)cc1,0%

# Brought forward from above: 5 compounds, then new ones.
SMILES,VDR inh
COc1cc([N+](=O)[O-])ccc1NC(=S)NC(=O)CC(C)(C)C,-2%
CN(C)S(=O)(=O)c1cccc(NC(=O)COC(=O)c2cc(=O)[nH]c(=O)[nH]2)c1,0%
CCOc1ccc(C(=O)CCC(=O)NCC(=O)OCc2ccccc2)cc1OCC,3%
O=C(CSc1nc2ccccc2s1)N/N=C/c1cc([N+](=O)[O-])ccc1O,-9%
O=C(CN1CCOCC1)Nc1ccc(Oc2ccccc2)cc1,0%
O=C(Cc1sc(Nc2ccccc2)nc1-c1ccccc1)NCc1ccccn1,8%
COc1cc2c(cc1NC(=O)Nc1ccc(F)cc1)oc1ccccc12,-8%
Cc1ccc(C(C)C)c(OCCNCCc2ccccc2)c1,-22%
CC(c1ccon1)N(C)C(=O)CCc1nnc(CCCCc2ccccc2)o1 (centres undefined),12%
CCOC(=O)CSc1nc(-c2ccccc2)cc(C(F)(F)F)n1,-8%
CCC1(CC)NC(=O)N(CC(=O)OCC(=O)Nc2ccccc2OC(F)F)C1=O,65%[activator]
CCCC(=O)Nc1nc2n(n1)C(c1ccccc1)CC(=O)N2 (centres undefined),0%
COC(=O)c1ccc(CN2CCN(Cc3ccc(C(=O)OC)o3)CC2)o1,7%
N#CCCN1CCN(S(=O)(=O)c2cc(Cl)ccc2Cl)CC1,-6%
CC1c2ccccc2SC(CCCN(C)C)c2ccccc21 (centres undefined),-4%
Cc1ccc(SCC(=O)OCC(=O)NC2(C#N)CCCCC2)cc1,4%
CS(=O)(=O)c1ccc2nnn(OCC(=O)Nc3ccc(Br)cc3Br)c2c1,0%
O=C(NCCCc1ccccc1)C(=O)NCC1OCCN1S(=O)(=O)c1ccccc1 (centres undefined),2%
COc1ccc(/C=N/NC(=O)c2ccccc2F)cc1CN1CCN(c2ccc(F)cc2)CC1,-1%
C=CC[N@@+]12CC[C@]34c5ccccc5N5/C=C6\C7N(/C=C(\C53)[C@@H](C[C@@H]41)/C(=C/CO)C2)c1ccccc1[C@@]71CC[N@@+]2(CC=C)C/C(=C\CO)[C@@H]6C[C@@H]12 (some centres undefined),-12%
COC(=O)c1ccc(N2CCN(C)CC2)c(NC(=O)COc2ccccc2Cl)c1,-18%
CCOC(=O)CSc1nnc(-c2cccc(Cl)c2)n1CC,4%
CCN(C1CCCCC1)S(=O)(=O)c1ccc(C(=O)O)cc1,0%
O=C(Cc1ccccc1)Nc1ccc2oc(=O)ccc2c1,7%
C1CCC(NC(=NC2C3CC4CC(C3)CC2C4)N2CCOCC2)CC1 (centres undefined),5%&12%
COc1ccc(S(=O)(=O)Nc2ccc(-c3cn4c(C)csc4n3)cc2)cc1,-3%
Cc1ccc(-n2c(-c3ccc(Br)cc3)c[n+]3c2CCc2ccc4cccnc4c2-3)cc1,21%
CC(=O)N1c2ccc(S(=O)(=O)N3CCCC3)cc2CC1C(=O)NCc1ccccc1F (centres undefined),-10%
CCc1nnc(NC(=O)CCC(=O)N2CCN(CCc3ccccc3)CC2)s1,10%
Cc1ccc(NC2=CC(=O)CC(c3ccco3)C2)c(N)c1 (centres undefined),-3%
O=C(CSc1nc(-c2ccco2)cc(C(F)(F)F)n1)NCCN1CCOCC1,-14%
Cc1cc(=O)[nH]c2nnc(-c3ccc(Cl)cc3)n12,-13%
COC(=O)CCCC1=CC2=CC(=O)C(C)(OC(=O)c3ccc(Cl)nc3)C(=O)C2=CO1 (centres undefined),9%
COc1ccc(-n2c(=O)c(-c3cc(F)cc(F)c3)nc3cnc(N4CCOCC4)nc32)cc1,?
COC(=O)c1ccc(CSc2nnc(N)s2)cc1,13%

# Nothing new here: an excerpt of the list.
SMILES,VDR inh
COC(=O)CCCC1=CC2=CC(=O)C(C)(OC(=O)c3ccc(Cl)nc3)C(=O)C2=CO1 (centres undefined),9%
COc1ccc(-n2c(=O)c(-c3cc(F)cc(F)c3)nc3cnc(N4CCOCC4)nc32)cc1,?
COC(=O)c1ccc(CSc2nnc(N)s2)cc1,13%

# Next section.
SMILES,VDR inh
Cc1cccc(NC(=S)N(CCN2CCOCC2)Cc2ccccc2F)c1,1%
Cc1nnsc1-c1c(C(=O)N2CCOCC2)c(C)nn1-c1ccccc1,-22%
O=[N+]([O-])c1ccc(/C([O-])=C(/C(=S)NCc2ccco2)[n+]2ccccc2)cc1,-5%
Nc1nonc1-c1nc2ccccc2n1CC(=O)Nc1ccccc1,8%
COc1ccc(OC)c(NC(=O)C(C)N2c3cccc4cccc(c34)S2(=O)=O)c1 (centres undefined),4%
COCc1[nH]nc2c1C(c1ccc(F)cc1F)C(C#N)=C(N)O2 (centres undefined),-7%
O=C(C[C@H]1C/C=C\CC[C@H](Cc2ccc(F)cc2)C(=O)O[C@@H](c2ccccc2)CNC1=O)N[C@H](CO)Cc1ccccc1,-13%
COC(=O)c1cccc(COC(=O)c2cc3ccccc3oc2=O)c1,0%
CCOC(=O)C(NC(=O)CC)(Nc1ccccc1OC)C(F)(F)F (centres undefined),-3%
Cc1ccc(-c2nnc(C)c(N3CCCC3)n2)cc1,-4%
Cc1ccc(-c2csc(-c3ccncc3)n2)cc1,-10%
CCCCCNS(=O)(=O)c1ccc(N2CCCCS2(=O)=O)cc1,4%
[O-]/[N+](=C\c1ccco1)c1ccc(Cl)cc1,35µM*
Cc1ccc(C(=O)Nc2ccncc2)c(Cl)c1,-11%
COc1cc(C(=O)NCc2nnc(SCC(=O)c3ccccc3)o2)cc(OC)c1OC,-30%
C=C1OC(CO)(n2cnc3c(N)ncnc32)C(O)C1O (centres undefined),-9%&1%
Cc1ccc(S(=O)(=O)N2CCOCC2)cc1C(=O)OCC(=O)N1CCCCC1,14%
O=c1c2ccccc2nc2sc(Nc3cccc(C(F)(F)F)c3)nn12,13%
O=C(c1ccoc1)N1CCC2(CC1)Oc1ccc(F)cc1C(=O)C21CC(c2cccnc2)=NO1 (centres undefined),-21%
CC1=C(C(=O)OC2CCC(C)CC2)C(c2ccc(O)c([N+](=O)[O-])c2)NC(=O)N1 (centres undefined),1%
COc1cc(-c2cc3nc(C)c(C)c(=O)n3[nH]2)cc(OC)c1OC,7%
CCc1ccc(S(=O)(=O)N2CCN(Cc3ccco3)CC2)cc1,-21%
O=c1cc(CO)oc2ccccc12,-11%
CCOC(=O)c1cccc(NC(=O)CSc2nnc(C)n2Cc2ccccc2)c1,7%
O=C(COc1ccc(Br)cc1Cl)NC(=S)Nc1ccccn1,-19%
CCC1CCCCN1S(=O)(=O)c1ccc(NC(=O)c2nc(S(C)(=O)=O)ncc2Cl)cc1 (centres undefined),20µM*
Cc1cnc(C(=O)Nc2cc(F)ccc2C)cn1,4%
CCCCCCOc1ccc(N2C(=O)CC(S/C(N)=N/N=C(\C)c3cccs3)C2=O)cc1 (centres undefined),7%
CC(C)(C)NC(=O)NC(=O)COC(=O)CNS(=O)(=O)/C=C/c1ccccc1,-5%
COc1ccc(-c2csc(/C(C#N)=C\c3ccc(OC)c([N+](=O)[O-])c3)n2)cc1,-2%
COc1ccc(Cc2nc3ccc(C(=O)NC(C)C)cc3o2)cc1,10%
Cc1ccc(-c2nc3c(c(=O)[nH]c(=O)n3CC(C)C)n2CC(C)C)cc1[N+](=O)[O-],-17%
Cn1c(=O)n(C)c2cc(S(=O)(=O)N3CCCCC3)ccc21,-15%
Fc1ccccc1-c1ccc(-c2nc3ccc(Cl)cn3c2Nc2ccc(Cl)cc2)o1,?
COC(=O)c1cc(OC)c(OC)c(OC)c1NC(=O)c1cc(=O)n(C)c(=O)n1C,-15%
FC(F)(F)c1cccc(-c2nc(COc3ccc(Cl)cc3Cl)no2)c1,-2%
CC1(C)C2CC=C(/C=N/NC(=O)C(N)=O)C1C2 (centres undefined),-11%
Cc1cccc(-c2nnc(SCC(=O)C(C)(C)C)n2C)c1,2%
CN(c1ccc(OCC(=O)N2CCN(c3ccc(F)cc3)CC2)cc1)S(=O)(=O)c1cccs1,-7%
O=C(CNc1n[nH]c(=O)[nH]c1=O)N/N=C/c1ccccc1,4%
CCc1nc(C)c(C#N)c2cc(OC)c(OC)cc12,-15%
